Sa ugtP lethal: growth inhibition of S. aureus ugtP deletion strain; S. aureus RN4220 ugtP deletion, OD600 growth, 16 h; some inactives read as strong as hits; growth inhibition, % (test concentration not listed); 0.54% of 330,000 active; AID 1259309;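 active means z-score under -3 and OD600 up to 0.15 on both plates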;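 further: plate controls were untreated wells for no effect and antibiotic for full effect; wells of about 80 µL received 100 nL stock; the first replicate is given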
PrP 5UTR inh: suppresses PrP 5' UTR mRNA reporter expression. cell-based PrP 5' UTR mRNA reporter, plate reader. inhibition, % (no concentration beside the values). 0.35% of 340,000 active. AID 488862;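 active means every replicate at 50% or more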;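 further: 0 = median of the neutral control wells; tested in H4 reporter cells; numbers are from one replicate; inactives centre near -14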
Sa RN4220 lethal: S. aureus RN4220 growth inhibition. OD600, 16 h. inhibition, % (no concentration beside the values). 0.33% of 330,000 active;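 active means z-score of -3 or lower and OD600 up to 0.18 on both plates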;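 further: plate controls were untreated cells for no effect and reference antibiotic for full effect; stock transfer was 100 nL into about 80 µL; one replicate is shown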
Mtb hypoxia rep: inhibitors of hypoxia-regulated fluorescent reporter in Mycobacterium tuberculosis; M. tuberculosis hypoxia-regulated fluorescent reporter, fluorescence; fluorescence inhibition, % (no concentration beside the values); 0.1% of 300,000 active; AID 1159583;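 active means 35 to 45% if threefold the growth effect, above 45% if 1.5-fold the growth effect; inactive means the rest, general growth blockers included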;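 further: wells of about 50 µL received 100 nL stock; 0% = vehicle wells and 100% = reference inhibitor wells; whole bacteria with a GFP reporter of the hypoxia response; strong numbers were not always called active; many hits fall short of the cut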
Autofluor counter: compound fluorescence in toxin protease inhibitor counterscreen | compound autofluorescence counterscreen, microsphere flow cytometry; stronger effect = higher value | fluorescence intensity (test concentration not listed) | 3.1% of 360,000 active | AID 624483;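 active means at least 3 SD above the mean of all compounds, about 16000 in these data; inconclusive means too few beads counted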;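 further: 100 nL of 1 mM stock went into each well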
BJeLR lethal: BJeLR cell viability loss. BJeLR (HRASV12) viability, CellTiter-Glo ATP luminescence, 48 h; reference of the scale not given here. 0.17% of 300,000 active. inhibition, % (test concentration not listed);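 active means replicate mean above 50%; inconclusive means above 50% but judged a plate artefact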;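 further: 50 nL library stock added to about 25 µL; numbers are from one replicate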
Mtb hypoxia rep growth: further read-out of Mtb hypoxia rep, marked with its call; growth inhibition, %; measured here: M. tuberculosis growth (absorbance);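 0% = vehicle and 100% = reference antibiotic; read after six days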
Starred values were filed as active, the others as inactive; ? = inconclusive; · = no result given.

SMILES	Sa ugtP lethal	PrP 5UTR inh	Sa RN4220 lethal	Mtb hypoxia rep	Mtb hypoxia rep growth	Autofluor counter	BJeLR lethal
COc1ccccc1/C=C1/SC(=S)N(C(C)C(=O)NC2C=CS(=O)(=O)C2)C1=O (stereo not given)	4	-101	5.9	12	1	4127	-7
COc1ccc(-n2c(SCC(=O)Nc3cccc(S(N)(=O)=O)c3)nc3ccccc3c2=O)cc1OC	2	-14	3.2	-3	-1	4472	1
Cc1ccc(S(=O)(=O)NC(N)=NCCc2ccc(Cl)cc2)cc1	-21	-10	-2.5	-10	11	2171	-3
Cc1ccc(C(=O)N2NC(c3ccccc3F)C3C(=O)N(c4cccc(C)c4)C(=O)C32)cc1 (stereo not given)	·	-10	·	·	·	6032	-7
CN1CCN(CC(O)COc2ccc(OCC(O)CN3CCN(C)CC3)cc2)CC1 (stereo not given)	-3	-21	4.9	-1	-1	4463	-4
CC1CCN(S(=O)(=O)c2cccc(C(=O)NCc3ccco3)c2)CC1	0	1	1.2	-3	-2	23763*	10
CCCc1cc(=O)n2[nH]c(-c3ccco3)nc2n1	7	3	5.7	-10	13	23273*	0
CCn1c(SCC(=O)Nc2nc3ccccc3s2)nnc1-c1ccc(Br)cc1	9	4	4.7	·	·	3505	9
O=C(NNS(=O)(=O)c1ccc([N+](=O)[O-])cc1)c1cnn(-c2ccccc2)c1-n1cccc1	-7	-21	12	15	12	3758	-7
Cc1cccc(-n2ncc3c2CCCC3NC(=O)Cn2cccn2)c1C (stereo not given)	2	-22	0.2	-5	6	5467	-3
CCOC(=O)c1oc2ccc(OC)cc2c1NC(=O)CN1CCN(C)CC1	52	-16	4.6	11	10	8840	-4
O=C(CN(C(=O)c1csnn1)c1ccccc1)NCc1ccc2c(c1)OCO2	-4	-23	3.0	-12	4	3499	-7
COc1cc2ccccc2cc1C(=O)NCC(c1cccs1)N(C)C (stereo not given)	8	-44	-0.2	17	12	4151	3
CCN(CC)CCNCc1ccc(Br)cc1OCC(=O)NCc1ccccc1	10	-4	4.7	14	5	4796	16
O=C(NC1CCCCCCC1)c1ccc(S(=O)(=O)N2CCCC2)cc1	6	-21	-0.8	·	·	3001	0
CCCCNc1c(-c2ccc(OC)c(SC3CCCCC3)c2)nc2cc(C)ccn12	-1	-15	4.2	5	13	3292	-2
Cc1cc(NC(=O)CSc2nnc(-c3cccnc3)n2C2CCCCC2C)no1 (stereo not given)	-4	-28	-4.7	8	3	2758	-13
COc1ccc(CNCCCSc2ncccn2)cc1OC	10	-15	4.1	0	3	4415	-9
Cc1cccc(C)c1OCc1cc(C(=O)NCC2CCCCC2)no1	2	-11	5.7	11	-3	4899	6
O=C(CCCC(=O)c1ccccc1)Nc1ccc(F)cc1	11	5	3.8	1	-1	2990	3
COC(CNC(=O)C1CCCN(S(=O)(=O)c2c(C)noc2/C=C/c2cccs2)C1)OC (stereo not given)	11	-37	4.8	7	5	4754	-1
COc1ccccc1NC(=O)Nc1ccc2c(c1)CCC2	4	-67	0.8	-1	6	6290	0
CC(=O)OCC(=O)C1(O)CCC2C3CC(F)C4=CC(=O)CCC4(C)C3C(=O)CC21C (stereo not given)	1	-30	2.4	4	5	4604	·
COc1ccc(NC(=O)CCNS(=O)(=O)c2ccc3c(c2)c(=O)n(C)c(=O)n3C)c(OC)c1	3	-10	4.3	6	-2	2464	1
CCOC(=O)CCc1c(C)n(CC)c2cc(-c3ccccc3OC)nn2c1=O	5	-15	7.6	7	10	2380	-13
CCOc1cc(/C=C/c2cccc[n+]2C)ccc1OCC(=O)Nc1ccc(C)cc1	1	-7	2.8	7	5	3968	-1
CCOc1ccc2nc(Cl)c(C3CC(c4ccco4)=NN3S(=O)(=O)c3ccccc3)cc2c1 (stereo not given)	-1	-18	-1.0	-7	-4	11444	-8
CS(=O)(=O)N(CC(=O)NCCSCc1c(F)cccc1Cl)c1ccc2c(c1)OCO2	-11	-16	-4.0	2	8	?	-7
COc1cc(C=NNc2ccccn2)ccc1OCC(C)C	-3	·	6.9	-8	-6	·	·
Cc1ccccc1NC(=O)/C=C/c1cccc(C(F)(F)F)c1	8	0	1.0	7	9	9831	-8
O=C1NC(c2cn(-c3ccccc3)nc2-c2cccs2)C(C(=O)c2cccnc2)C(O)(C(F)(F)F)N1 (stereo not given)	-5	-19	2.8	·	·	2080	0
Cc1ccc(C(=O)NNC(=O)C2CCN(Cc3ccc(Cl)c(Cl)c3)CC2)cc1	0	-19	-1.4	·	·	2301	4
c1cn2cc(-c3ccc4c(c3)OCO4)nc2s1	-1	-44	2.9	·	·	9100	7
COc1ccc(CN2CCCC2C(=O)Nc2ccc(OC)c(OC)c2)cc1OC (stereo not given)	-3	-27	-2.3	-2	-11	7094	-14
CC1CN(C(=O)c2ccncc2)CC(C)O1 (stereo not given)	12	·	1.1	-1	6	·	4
CC(C)N(C(=O)[C@H]1C[C@H](CC(=O)NCc2ccco2)C(=O)N2CCc3c([nH]c4cc(-c5ccco5)ccc34)[C@]12C)C(C)C	31	3	-9.4	-1	4	3734	·
CCOc1cccc(=NC2CCCCC2)c2c(C)n(C)c(C)c12	-13	·	-0.5	13	13	6236	22
NC(=O)C1CCN(C(=O)CCCCCn2c(=O)[nH]c3ccsc3c2=O)CC1	4	-25	2.2	20	5	4285	-5
NS(=O)(=O)c1cccc(NC(=O)COC(=O)CCc2ccccc2)c1	-3	-22	2.1	11	-3	3895	7
O=C(Cc1ccc(Br)cc1)Nc1ccccc1N1CCCC1	-3	-15	2.1	-1	3	5365	-3
CCOC(=O)CSc1cc(CS(C)(=O)=O)nc(-c2ccccn2)n1	9	-13	5.0	-2	1	4551	3
O=C(NCCCN1CCOCC1)c1cc2nc(-c3ccco3)cc(C(F)(F)F)n2n1	1	-2	2.0	6	0	4477	-1
COc1cc(NC(=O)C/C(C)=N/NC(=O)c2ccccn2)c(OC)cc1Cl	·	-21	·	·	·	5432	-5
COC(=O)c1c(-c2ccc(OC)cc2)sc2cc(OC)c(OC)cc12	9	-25	-0.2	8	10	4255	·
NC(=O)c1nsc(C(=O)N(Cc2cccnc2)C(C(=O)NC2CCCC2)c2ccc(F)cc2)c1N (stereo not given)	7	-22	6.7	-12	5	5698	-8
Cn1c(=O)cc(OCCCC(=O)NCCCN2CCN(Cc3ccccc3)CC2)c2ccccc21	-1	-34	1.4	-1	0	9304	-6
CCc1ccc(N2C(=O)CN(Cc3cc(OC)c(OC)c(OC)c3)C2=S)cc1	7	-10	6.5	9	3	2147	1
COc1cc(C(C)=O)ccc1OCC(O)CN1CCN(c2ccc(F)cc2)CC1 (stereo not given)	·	-4	·	·	·	3501	3
Oc1ccc(-c2nccc(-c3ccc(Cl)cc3)n2)cc1	23	-28	13	0	0	4141	1
CCCCNC(=S)NNc1c(Cl)cc(Cl)cc1Cl	5	-9	13	4	0	4382	7
Cc1c(-c2cccs2)[n+](=O)c2c(n1[O-])CCCCC2	4	-30	2.8	15	20	3912	-1
Cc1cc(C)nc(NN=Cc2cc3c(cc2[N+](=O)[O-])OCO3)n1	6	·	5.8	10	11	·	·
CCOc1ccccc1NC(=O)N1CCC(n2nnc3cc(C)ccc32)CC1	10	-26	-4.3	5	-1	8741	-1
O=C(c1cccc2nc3ccccc3nc12)N1CCOCC1	2	-33	2.0	-1	-2	5815	3
C=CCNC(=O)c1sccc1Oc1ccc(F)cc1[N+](=O)[O-]	1	-34	3.4	11	10	4202	2
CC(O)C(NC(=O)OCc1ccccc1)C(=O)OCc1ccccc1 (stereo not given)	9	-8	4.0	7	5	4485	·
O=C(CN(Cc1ccc(F)cc1)S(=O)(=O)c1ccc(S(=O)(=O)N2CCOCC2)cc1)Nc1ccccc1	3	0	5.2	4	0	9865	-1
CCc1ccc(-c2csc3nc[nH]c(=O)c23)cc1	-4	-12	1.6	-9	6	4093	-6
CN(C)CCCN1CC(=O)N2[C@@H](Cc3c([nH]c4ccccc34)C2(C)C)C1=O	-2	-19	-1.0	0	-1	4035	2
CCOC(=O)NC(=O)C(C#N)=NNc1cccc(OC)c1	4	·	16	11	10	·	·
(continued)
SMILES	Sa ugtP lethal	PrP 5UTR inh	Sa RN4220 lethal	Mtb hypoxia rep	Mtb hypoxia rep growth	Autofluor counter	BJeLR lethal
COc1cc(C(=O)NCCCN2CCCC2=O)cc(OC)c1OC	-1	·	2.3	2	5	11282	4
Cc1ccc(CN2C(CC3CCCCC3)COCCS2(=O)=O)cc1 (stereo not given)	15	·	5.8	-3	6	·	·
COc1ccc(/C=C/C(=O)OCC(=O)NCCCc2ccccc2)cc1OC	18	-2	2.7	6	4	4974	·
COc1ccc(C(=O)NNC(=S)NC(=O)c2cccc([N+](=O)[O-])c2)cc1	-10	-12	2.8	-1	-4	3528	4
O=C(CN1CCCCCC1)Nc1ccc(Br)cc1[N+](=O)[O-]	6	-13	3.6	3	13	3787	-3
COc1ccc(-c2cc(C(F)(F)F)nc(S(=O)(=O)CCC(=O)N3CCOCC3)n2)cc1	12	10	16	-1	3	2395	-6
CCN1C(=NCCc2c[nH]c3ccccc23)N[C@@H](c2ccccc2)[C@H](C(=O)OC)[C@H]1C	10	-12	18	-3	-1	2870	8
O=C(CCNC(=O)c1ccco1)NNC(=O)c1ccc(Br)cc1	14	-22	2.5	6	-9	?	·
COc1ccc(-c2nc3cc(C)ccn3c2NC(=O)c2ccccc2OC)cc1	-4	-22	5.4	-2	0	3653	-10
[S-]c1nnc(-c2ccc(Br)cc2)n1-c1ccccc1.[Zn+2]	6	-22	2.8	-1	8	4594	-4
CC(C)(C)c1nn2cnnc2n(N=Cc2cccc3ccccc23)c1=O	4	·	4.5	12	4	·	·
CN1CCN(c2nc(N)cc(=O)[nH]2)CC1	5	-12	5.1	5	-1	3810	8
COc1ccc(-n2nc3cc(C)c(NC(C)=O)cc3n2)cc1	5	42	3.4	5	7	3008	-4
CC(C)C(=O)NC(c1ccccc1)c1cc([N+](=O)[O-])c2cccnc2c1O (stereo not given)	72	-23	74	3	9	2036	6
CN(c1ccc(OCC(=O)O)cc1)S(=O)(=O)c1ccc2ccccc2c1	9	-13	1.8	1	-2	3606	6
CCCCNC(=S)N(C)N=C1CCC(c2ccccc2)CC1 (stereo not given)	20	-25	11	4	-2	4325	3
Cn1c(=O)c2ncn(CC(=O)O)c2n(C)c1=O	·	8	·	·	·	4358	-1
Cc1cc(=O)n2cccc(O)c2n1	5	-15	2.0	12	3	3055	5
CC(C)(O)C#Cc1ccc(C(=O)NCc2ccccc2)s1	-4	-16	4.7	14	9	10483	2
Cc1cc(C(=O)Nc2c(C)n(C)n(-c3ccccc3)c2=O)c2ccccc2n1	2	-3	2.6	15	9	3985	-5
CCOc1ccc(C(=O)NC2CC(C)(C)NC(C)(C)C2)cc1	13	-56	3.5	-5	-4	3273	-3
CCC(CC)n1[nH]c(=O)cc1N	-1	-5	-0.1	·	·	4765	2
COc1ccc(OCC(=O)NNC(=O)c2cccs2)cc1	4	4	1.5	·	·	4038	-15
Cn1cc(CN2CCCC(C(=O)Nc3ccc(-c4cccc(F)c4)cc3)C2)cn1 (stereo not given)	-1	-7	-0.6	0	-4	·	7
COc1ccc(OC2C=CC(c3ccccc3)OC2COC(=O)CCC(C)=NOC(C)CN2CCCCc3nc(C)c(C)cc32)cc1 (stereo not given)	5	·	2.2	3	6	·	·
CC(=O)CC(=O)Nc1ccc(C(N)=O)cc1	13	-6	6.1	5	6	3528	6

Bioassay records: PubChem BioAssay, several laboratories
